# Screening data: PubChem, Johns Hopkins Ion Channel Center
# KCNQ2 enhance – potentiators of rat KCNQ2 potassium channel. O88943. CHO-K1 KCNQ2, FluxOR thallium flux fluorescence; stronger effect = higher value. B-score at 10 µM. 0.54% of 310,000 active;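 active = fluorescence ratio B-score at least 3 SD of library B-scores, with initial fluorescence B-score within 3 SD, cut at about 5.3 in these data; same plate scores as AID 2156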;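 also: B-score of peak minus minimum over baseline fluorescence ratio after K+ and Tl+ stimulus; positive B-score means potentiation of KCNQ2 with more thallium influx and brighter signal; only the inactives scoring about 0 or higher are listed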
# Target sequence (O88943 whole entry, looked up): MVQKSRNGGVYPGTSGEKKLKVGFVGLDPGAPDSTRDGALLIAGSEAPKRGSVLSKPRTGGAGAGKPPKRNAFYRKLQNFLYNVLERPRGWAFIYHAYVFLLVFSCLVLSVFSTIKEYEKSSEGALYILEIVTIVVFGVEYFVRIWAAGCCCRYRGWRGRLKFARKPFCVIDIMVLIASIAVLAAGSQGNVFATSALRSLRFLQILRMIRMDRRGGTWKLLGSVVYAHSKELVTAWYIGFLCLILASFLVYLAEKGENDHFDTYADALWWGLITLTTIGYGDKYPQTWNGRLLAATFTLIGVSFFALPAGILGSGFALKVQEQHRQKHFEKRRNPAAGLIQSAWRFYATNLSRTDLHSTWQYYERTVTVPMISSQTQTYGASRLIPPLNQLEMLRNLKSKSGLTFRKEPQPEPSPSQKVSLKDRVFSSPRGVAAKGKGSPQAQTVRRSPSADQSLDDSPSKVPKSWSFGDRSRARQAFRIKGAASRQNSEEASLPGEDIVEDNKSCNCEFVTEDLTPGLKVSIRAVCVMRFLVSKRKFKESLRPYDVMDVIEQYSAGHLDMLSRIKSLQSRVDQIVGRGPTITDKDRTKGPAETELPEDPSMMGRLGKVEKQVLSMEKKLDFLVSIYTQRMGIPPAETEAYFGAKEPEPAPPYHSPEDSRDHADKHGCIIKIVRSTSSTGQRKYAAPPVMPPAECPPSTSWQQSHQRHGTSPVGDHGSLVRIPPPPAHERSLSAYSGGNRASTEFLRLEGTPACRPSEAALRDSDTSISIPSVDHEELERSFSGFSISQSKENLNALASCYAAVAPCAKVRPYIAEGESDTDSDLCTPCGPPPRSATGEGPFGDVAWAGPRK
# KCNQ2 enhance baseline – recorded beside KCNQ2 enhance, whose call it bears; B-score; compound at 10 µM; measured here: initial fluorescence intensity artifact check;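 brightness before thallium and not channel activity; 0 = typical well and far values either way flag optical interference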
# Numbers without * were called inactive. The list is partial. The share of hits here may be higher or lower than overall.
SMILES,KCNQ2 enhance,KCNQ2 enhance baseline
Cc1ccc2c(c1)cc(C(=O)N[C@@H](Cc1ccccc1)C(=O)O)n2C,0.62,-0.52
Cc1nn(CC(=O)NC(C)C)c(C)c1[N+](=O)[O-],0.07,-0.53
COc1cccc(CNC(=O)CCS(=O)(=O)c2ccc3c(c2)NC(=O)CS3)c1,0.32,-0.46
Cc1ccc(C(=O)NN2C(=O)C3C4C=CC([C@@H]3C2=O)C42CC2)cc1 (stereo partly specified),0.66,-2.5
COc1ccc(CC(=O)Nc2ccc(C(=O)NCC(C)C)cc2)cc1,0.23,-0.87
CN(C)S(=O)(=O)c1cccc(C(=O)Nc2cccnc2)c1,0.62,-1.1
CSc1nc2[nH]c3c(c2c2nnnn12)CCCC3,0.19,0.41
Cc1ccc(C)c(S(=O)(=O)Nc2cc(C)on2)c1,0.5,-0.02
COc1ccc2nc(N/C(N)=N/C(=S)Nc3ccc(C)c(C)c3)nc(C)c2c1,1.2,-0.4
CC(COc1ccccc1)N1CCC(CO)(Cc2ccccc2)CC1 (stereo unspecified),2.2,0.22

# Brought forward from above: 2 compounds; new compounds follow.
SMILES,KCNQ2 enhance,KCNQ2 enhance baseline
COc1ccc2nc(N/C(N)=N/C(=S)Nc3ccc(C)c(C)c3)nc(C)c2c1,1.2,-0.4
CC(COc1ccccc1)N1CCC(CO)(Cc2ccccc2)CC1 (stereo unspecified),2.2,0.22
O=C(CCSCCC(=O)NCCN1CCOCC1)NCCN1CCOCC1,1.5,-0.84
Cc1ccc(N(C(=O)c2ccccn2)C(C(=O)NC2CCCCC2)c2ccncc2)cc1 (stereo unspecified),0.38,0.68
CCN(CC)CCNC(=O)CN1C(=O)COc2ccc(S(=O)(=O)N3CCOCC3)cc21,0.62,-0.59
NC(=O)COC(=O)c1c2c(nc3ccccc13)CCCC2,0.01,0.39
Cc1ccc(N2C(=O)C3CCCN3C2=S)cc1Cl (stereo unspecified),0.38,-1.8
CCOC(=O)c1[nH]c2ccc(Cl)cc2c1NC(=O)c1nonc1C,0.3,0.8
COc1ccc(C(=O)NC(=S)Nc2nc(C)c(C(=O)N(C)C)s2)cc1,1.6,0.47
Nc1c(C(=O)NCc2ccccc2)c2nc3ccccc3nc2n1-c1ccc2c(c1)OCO2,0.91,1.2
COc1cccc(-c2nnc(N(C)C(=O)C3CCOC3)s2)c1 (stereo unspecified),0.53,1.6
Cc1ccc(-c2nnn(CC(=O)Nc3ccc(S(=O)(=O)N4CCC(C)CC4)cc3)n2)cc1,0.89,0.11
O=C1NC(=S)N/C1=C\c1ccc(Oc2ccc(C(F)(F)F)cc2[N+](=O)[O-])c(Cl)c1,0.77,1.1
S=c1[nH]nc(-c2ccc3ccccc3n2)n1-c1ccccc1,0.22,-0.02
Cc1ccccc1NC(=O)c1ccc([N+](=O)[O-])o1,0.15,1
Cc1ccc(C(=O)NNC(=O)Cc2csc(-c3csc(C)n3)n2)cc1,2.5,-0.7
O=C(C=C1CCN(c2ncc(C(F)(F)F)cc2Cl)CC1)NNC(=O)Nc1ccccc1,0.06,-0.19
O=C(CSCCO)Nc1cccc(C(F)(F)F)c1,1.1,-0.02
Cn1nnnc1SCC(=O)Nc1ccc(N2CCOCC2)cc1,0.4,-0.24
Cc1cccc(C)c1OCc1cc(C(=O)NCC2CC2)no1,0.18,0.95
C/C(CC(=O)Nc1ccccn1)=N\NC(=O)c1ccccc1,0.1,0.29
CC(=O)N1CCc2cc(S(=O)(=O)Nc3cccc(C(F)(F)F)c3)ccc21,0.09,-0.29
O=C(NN1C(=O)C2C3C=CC(O3)C2C1=O)c1cccc(Br)c1 (stereo unspecified),1.4,-1.6
Cc1ccc(S(=O)(=O)N2CCCC2CO)cc1 (stereo unspecified),0.23,-0.48
CCCCN1C(=O)C2NN=C(C(=O)OC)C2C1=O (stereo unspecified),0.66,1.9
Cc1ccc(SCCNC(=S)Nc2ccc(C)c(C)c2)cc1,10*,-0.07*
COc1ccc(N2CC(C(=O)Nc3nccs3)CC2=O)cc1 (stereo unspecified),0.02,-1.9
O=C(Nc1nc2ccccc2n1CCN1CCCCC1)C1CCCCC1,2.4,-1.1
COc1ccc(-c2cc(C)no2)cc1S(=O)(=O)N1CC(=O)Nc2ccccc21,0.11,0.87
Cc1ccccc1NC(=O)CN1CCOCC1,0.07,1.1
CC(C)(C(=O)O)c1ccc(C(O)CCCN2CCC(C(O)(c3ccccc3)c3ccccc3)CC2)cc1 (stereo unspecified),0.06,-0.64
COc1ccc(C(NC(C)=O)c2c(O)ccc3ccccc23)cc1OC (stereo unspecified),0.97,2

# The last 3 records of the part above are carried over, then new ones follow.
SMILES,KCNQ2 enhance,KCNQ2 enhance baseline
Cc1ccccc1NC(=O)CN1CCOCC1,0.07,1.1
CC(C)(C(=O)O)c1ccc(C(O)CCCN2CCC(C(O)(c3ccccc3)c3ccccc3)CC2)cc1 (stereo unspecified),0.06,-0.64
COc1ccc(C(NC(C)=O)c2c(O)ccc3ccccc23)cc1OC (stereo unspecified),0.97,2
O=S(=O)(Nc1ccccc1)c1cccc2nonc12,0.04,-2.5
CC(OC(=O)c1ccc(Cl)c(S(=O)(=O)N2CCCC2)c1)C(=O)NC1CCCCC1C (stereo unspecified),0.58,0.93
COc1ccc(-c2[nH]ncc2Oc2ccccc2OC)c(O)c1,0.1,-1.1
CC1CC(CC(=O)Nc2nc(-c3ccccc3)cs2)C(=O)O1 (stereo unspecified),0.71,1.6
O=C(Cc1ccc(Br)cc1)Nc1ccc(S(=O)(=O)N2CCCC2)cc1,0.48,0.41
O=C1Nc2ccccc2C1Cc1ccccn1 (stereo unspecified),0.18,1.1
CCOc1ccc(CN2C(=O)c3ccccc3C2=O)cc1C(=O)N1CCC(C(N)=O)CC1,0.07,0.09
COc1cccc(Oc2ncnc(N)c2[N+](=O)[O-])c1,0.38,-1.5
O=C(c1cc2nc(-c3ccco3)cc(C(F)(F)F)n2n1)N1CCc2ccccc2C1,1.2,-1.1
Cc1cc(OCc2cc(C(=O)NC3CCC3)no2)cc(C)c1Cl,0.16,1.5

# Complete entries, looked up by structure. Screens in order: KCNQ2 enhance | KCNQ2 enhance baseline
# Profile of `CC(OC(=O)c1ccc(Cl)c(S(=O)(=O)N2CCCC2)c1)C(=O)NC1CCCCC1C` (stereo unspecified) = 0.58 | 0.93
# Profile of `COc1ccc(-c2[nH]ncc2Oc2ccccc2OC)c(O)c1` = 0.1 | -1.1
# Profile of `O=C(Cc1ccc(Br)cc1)Nc1ccc(S(=O)(=O)N2CCCC2)cc1` = 0.48 | 0.41
# Profile of `Cc1cc(OCc2cc(C(=O)NC3CCC3)no2)cc(C)c1Cl` = 0.16 | 1.5

# Additional compounds:
SMILES,KCNQ2 enhance,KCNQ2 enhance baseline
Cc1cc(=O)oc2cc(OCC(=O)N/N=C/c3ccccc3[N+](=O)[O-])ccc12,1,-0.2
O=C(Nc1nnc(-c2ccc(Cl)cc2)o1)c1nc2ccccc2s1,1.1,0.01
CC(=O)c1cccc(NC(=O)C(C)OC(=O)Cc2c[nH]c3ccccc23)c1 (stereo unspecified),1.5,-2
CN(Cc1ccccc1)C(=O)c1nn2cccnc2c1Cl,1.3,-3.4
N#Cc1c(-c2cccs2)nc(SCc2ccc(Cl)cc2)[nH]c1=O,6.1*,-1.2*
COc1cccc(-c2nc(CS(=O)(=O)CC(=O)NCCN3CCOCC3)c(C)o2)c1,0.21,-0.8
Cn1c(CNC(=O)C2CCCCC2)cc2ccccc21,0.85,-0.59
O=C(CCC(=O)OCC(=O)c1ccc([N+](=O)[O-])cc1)Nc1ccccc1Cl,2,-0.15
Oc1ccc(-c2nc(=S)[nH][nH]2)cc1,0.4,2.7
N/N=C(\c1ccccc1)c1cc(Cl)ccc1N,0.01,1
O=C(NC(=S)Nc1ccc(Cl)c(C(=O)O)c1)c1cccc(COc2ccccc2)c1,2.2,-0.77
Cn1c(SCC(=O)N2CCOCC2)nnc1-c1ccc(Cl)cc1Cl,0.62,1.8
CCC1OC23CCCCC2C(C#N)(C(=N)O3)C1(C#N)C#N (stereo unspecified),0.57,-1.6
COc1ccc(/C=N/NC(=O)c2cccc(Br)c2)cc1Cn1cc(Cl)cn1,0.22,0
O=C(O)Cc1ccc(N=Nc2c(O)c(C(=O)O)cc3ccccc23)cc1,0.54,-0.33
O=C(COc1ccc2ccccc2c1)NNC(=O)c1cnccn1,1.8,0.06
COc1ccccc1CC(NC(C)=O)C(=O)NC1CCN(C(=O)c2ccc([N+](=O)[O-])cc2)CC1 (stereo unspecified),1.9,-0.37
COc1cc(NC(=O)Nc2cccc(C(C)=O)c2)cc(OC)c1OC,0.01,0.73
CN(NC(=O)NN)c1ncc(C(F)(F)F)cc1Cl,1.6,0.42
Cc1cc(Cl)ccc1OC(C)C(=O)Nc1ccc([N+](=O)[O-])cn1 (stereo unspecified),0.01,1.2
CC(=O)N1CCc2cc(S(=O)(=O)CCC(=O)Nc3ccccc3F)ccc21,0.46,2.3
Cc1cccc(N2CCN(C(=O)NCc3ccc(F)cc3)CC2)c1C,1.5,-0.02
CCCCn1c(N)c(N(CC(C)C)C(=O)C2CCN(S(=O)(=O)c3ccc(C)cc3)CC2)c(=O)[nH]c1=O,2.1,-1.1
O=C(CCNC(=O)c1ccccc1Cl)NCc1cccnc1,2.2,-0.19
CCOC(=O)C1=C(CS(=O)(=O)c2ccccc2)NC(=O)NC1c1ccccc1OC (stereo unspecified),0.17,-1.1
O=[N+]([O-])c1ccccc1OCCN1CCCC1,1.4,0.44
CCOC(=O)CCSCC(=O)Nc1cc(C)on1,1.8,-0.11
CCOC(=O)c1nn(-c2ccc(C)cc2)c(=O)c2c(N)scc12,0.1,0.76
O=C(O)c1cccc(N/N=C/c2ccc(F)c(F)c2)c1,0.33,0.09
Cc1cc(C(F)(F)F)n2nc(C)c(-c3ccc(Cl)cc3)c2n1,0.49,0.35
O=C(O)CC(NS(=O)(=O)c1ccc(Br)cc1)c1ccco1 (stereo unspecified),0.19,0.97
COC(=O)c1c(S(=O)(=O)NCc2ccccc2)sc(C(=O)O)c1C,0.4,0.04
CNC(=O)COC(=O)c1nc(-n2nc(C)cc2C)ccc1Cl,0.84,0.67
Cc1ccccc1NC(=O)COC(=O)c1ccc(S(C)(=O)=O)c([N+](=O)[O-])c1,0.24,-3.1
CCOc1ccccc1C(=O)N1CCC(n2nnc3cc(C)ccc32)CC1,0.08,-0.95
COc1ccc(S(=O)(=O)NCCCc2ccccc2)cc1,0.02,-0.41
CC(Oc1cccc(Cl)c1)C(=O)NCc1ccc(S(N)(=O)=O)cc1 (stereo unspecified),0.64,0.11
COC(=O)C1=C(C)N(CC2CC2)C(=O)N[C@H]1c1ccccc1,0.04,0.77
Cc1ccc(CCN2CC(C(=O)NCCCN3CCOCC3)CC2=O)cc1 (stereo unspecified),0.99,0.54
COc1ccc(-c2[nH]c(-c3ccccc3)nc2SCC(=O)NCc2ccco2)cc1OC,0.89,0.01
CCn1c(SCC(=O)Nc2ccc(-c3nc4ccc(C)cc4s3)cc2)nnc1-c1ccccc1,0.7,-0.22
O=C(c1ccc(Cl)c(S(=O)(=O)N2CCCCC2)c1)N1CCN(c2ccccc2)CC1,0.06,-0.01
COc1ccc(NC(=O)C2CCN(c3nc(-c4ccc(OC)cc4)no3)CC2)cc1,0.06,-0.49
CCCC(C(=O)NC1CCCC1)N(CCCN1CCOCC1)C(=O)c1snc(C(N)=O)c1N (stereo unspecified),0.31,2.2
COc1ccc2nc(NC(=O)C3CCN(S(=O)(=O)c4cnc[nH]4)CC3)sc2c1,0.02,-0.6
COCCNC(=O)c1c(N)n(/N=C/c2ccc(F)cc2)c2nc3ccccc3nc12,2.2,-0.75
CC1CC(C)CN(S(=O)(=O)c2ccc3c(c2)oc(=O)n3CC(=O)NCCCOC(C)C)C1 (stereo unspecified),0.86,0.24
CCCCn1c(N)c(N(CC(C)C)C(=O)C2CC(=O)N(c3ccc4c(c3)OCCO4)C2)c(=O)[nH]c1=O (stereo unspecified),0.2,0.05
NS(=O)(=O)c1ccc(CCNC(=O)CN2CCN(c3ccc(F)cc3)CC2)cc1,0.72,-1.6
O=C(NNS(=O)(=O)c1cccc(Cl)c1Cl)c1cccc(S(=O)(=O)N2CCOCC2)c1,1.5,2.2

# (further entries)
SMILES,KCNQ2 enhance,KCNQ2 enhance baseline
CCC(C)(C)NC(=O)C(c1ccc(OC)cc1)N(Cc1ccco1)C(=O)CCC(=O)Nc1cc(C)on1 (stereo unspecified),0.11,-1.3
CCCCN(CCCC)S(=O)(=O)c1ccc(N2CCCC2=O)c([N+](=O)[O-])c1,0.99,1.5
CS(=O)(=O)N1CCCC(C(=O)Nc2ccccc2)C1 (stereo unspecified),0.21,1.1
CC1=C(c2ccccc2)C(=S)NC(C)(C)C1,1.6,0.3
CCn1ncc(C2=NOC(C(=O)Nc3c(C)n(C)n(-c4ccccc4)c3=O)C2)c1C (stereo unspecified),1.1,0.18
CCOc1ccc(CCNC(=O)c2nnn(CC(=O)Nc3ccc(OC)c(OC)c3)c2N)cc1OCC,0.22,0.03
CC(C)(C)N=C1NC(=NC(C)(C)C)c2ccccc21,3.5,-2.9
COc1ccc2cc(OCC(=O)NNC(=O)Nc3ccc(C(C)=O)cc3)ccc2c1,0.55,0.08
Cc1ccc(-c2nnn(CC(=O)N(CC3CCCO3)C(C(=O)NCC3CCCO3)c3ccc(F)cc3)n2)o1 (stereo unspecified),0.95,0.67
CCCc1ccc(C(C)NC(=S)NC2CCCCC2)cc1 (stereo unspecified),23*,1.8*
CC1(C)C(=O)Nc2ccccc2N1C(=O)COC(=O)c1cc([N+](=O)[O-])ccc1N,0.1,0.19

# 3 entries from above, field by field.
> CCCc1ccc(C(C)NC(=S)NC2CCCCC2)cc1 (stereo unspecified)
  KCNQ2 enhance = 23*; KCNQ2 enhance baseline = 1.8*
> CC1(C)C(=O)Nc2ccccc2N1C(=O)COC(=O)c1cc([N+](=O)[O-])ccc1N
  KCNQ2 enhance = 0.1; KCNQ2 enhance baseline = 0.19
> CCCCN(CCCC)S(=O)(=O)c1ccc(N2CCCC2=O)c([N+](=O)[O-])c1
  KCNQ2 enhance = 0.99; KCNQ2 enhance baseline = 1.5
